Screens deposited in PubChem by ICCB-Longwood Screening Facility, Harvard Medical School.
PV pol inh – inhibitors of poliovirus RNA polymerase binding and polymerization; poliovirus polymerase elongation, fluorescence polarization; active compounds read low; AID 588519; % elongation, % (compound at 16.7 µg/mL); actives 0.66% (n = 150,000); in the data active = % elongation below about 90%; note: some results filed as inactive read as strong as hits
MenB inh – blocks the Mycobacterium tuberculosis MenB enzyme. P9WNP5. MenB enzyme assay, absorbance read-out; some hits fall short of the stated cut. inhibition, %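 (about 12 µg/mL by stock and volumes)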. actives 0.43% (n = 100,000);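 active = mean of two replicates above 30%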;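 note: 0% = no compound and 100% = wells with inactive enzyme; the first replicate is given; strong numbers were not always called active; inactives centre near -10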
Target sequence (P9WNP5 whole entry, looked up): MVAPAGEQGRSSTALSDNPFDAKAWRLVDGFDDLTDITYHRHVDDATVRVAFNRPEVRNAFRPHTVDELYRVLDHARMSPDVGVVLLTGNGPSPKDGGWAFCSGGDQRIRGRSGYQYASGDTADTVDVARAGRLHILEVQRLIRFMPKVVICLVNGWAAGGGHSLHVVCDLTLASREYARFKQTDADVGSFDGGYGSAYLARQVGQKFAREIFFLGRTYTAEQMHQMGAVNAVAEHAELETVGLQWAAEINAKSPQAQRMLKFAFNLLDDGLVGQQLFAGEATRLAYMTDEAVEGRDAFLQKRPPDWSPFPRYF
Mtb MbtI inh – inhibitors of Mycobacterium tuberculosis siderophore enzyme MbtI; P9WFX0; purified MbtI enzyme, fluorescence intensity read-out; AID 493033; actives 0.89% (n = 100,000); inhibition, %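 (about 17 µg/mL by stock and volumes)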;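 active = above 50% in both replicates, above 80% if mildly self-fluorescent; inactive = the rest, strongly fluorescent compounds included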;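 note: 0% = mean of negative and 100% = mean of positive controls; one replicate is shown; some compounds called inactive have numbers as strong as hits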
Target sequence (P9WFX0 whole entry, looked up): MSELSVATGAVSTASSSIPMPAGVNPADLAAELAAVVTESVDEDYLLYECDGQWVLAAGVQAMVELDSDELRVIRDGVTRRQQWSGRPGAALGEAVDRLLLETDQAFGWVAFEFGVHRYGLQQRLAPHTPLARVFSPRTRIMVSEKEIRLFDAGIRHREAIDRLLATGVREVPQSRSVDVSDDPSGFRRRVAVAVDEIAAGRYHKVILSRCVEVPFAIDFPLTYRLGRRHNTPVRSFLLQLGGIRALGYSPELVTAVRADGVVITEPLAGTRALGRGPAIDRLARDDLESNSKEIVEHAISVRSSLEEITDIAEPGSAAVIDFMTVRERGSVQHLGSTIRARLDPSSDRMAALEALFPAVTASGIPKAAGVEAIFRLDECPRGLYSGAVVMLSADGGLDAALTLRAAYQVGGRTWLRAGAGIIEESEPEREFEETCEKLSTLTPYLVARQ
PV pol inh intensity – recorded beside PV pol inh, whose call it bears; % elongation; measured here: total intensity read-out; formula for this scale not given here;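 total fluorescence in place of polarization; lower means less elongation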
The depositor's hits bear a star; . = no result given; & = joins results of further samples.

SMILES | PV pol inh | PV pol inh intensity | MenB inh | Mtb MbtI inh
CC(NC=O)c1nc2ccccc2n1Cc1ccccc1 (stereo unspecified) | 101 | 103 | -8 | -8
COc1ccc(/C=N/c2c(-c3ccco3)nc3ccccn23)cc1OC | 102 | 103 | -13 | .
N#Cc1ccc(OCC(=O)Nc2ccc(-c3cn4ccsc4n3)cc2)cc1 | 102 | 98 | -25 | -16
Cc1ccc(O)c(C(=O)c2cnc3c(c2)CN(CCC(C)C)C(=O)N3)c1 | 107 | 105 | -13 | -26
Cc1cc(C)nc(NS(=O)(=O)c2ccc(-n3cccc3)cc2)n1 | 106 | 108 | -4 | .
Cc1ccccc1Nc1c(N)c(=O)oc2ccccc12 | 102 | 101 | 12 | -3
CCC(=O)Nc1nc2nc(COC)cc(=O)n2[nH]1 | 103 | 106 | -16 | .
CCOc1ncccc1C(=O)Nc1cc(C(C)(C)C)ccc1OC | 107 | 110 | -2 | 130
CN1CCN(C(CC(=O)Nc2cccc3ccccc23)C(=O)O)CC1 (stereo unspecified) | 102 | 103 | -5 | -7
CC(C)N(C(=O)CSc1nncn1-c1ccccc1)c1ccccc1 | 103 | 109 | -22 | -12
CCOC(=O)c1ccc(CSc2n[nH]c(C)n2)o1 | 101 | 96 | -18 | 8
O=C(Nc1ccccc1N1CCCC1)c1ccc(CSc2ncn[nH]2)cc1 | 108 | 115 | -6 | 4
O=C(Nc1ncnc2sc3c(c12)CCCC3)c1ccc(F)cc1 | 103 | 99 | . | -8
COc1ccc(OCCN2C(=O)c3ccccc3S2(=O)=O)cc1 | 105 | 106 | -14 | -13
Cc1cc(C(=O)NN2CCOCC2)cs1 | 103 | 104 | -19 | -12
OC(COc1ccc(-c2csnn2)cc1)CN1CCN(C(c2ccccc2)c2ccccc2)CC1 (stereo unspecified) | 108 | 110 | -4 | -3
O=C(CSc1nnc(-c2cc3ccccc3[nH]2)n1-c1ccccc1)NC1CCS(=O)(=O)C1 (stereo unspecified) | 100 | 99 | 2 | 0
C=CCNC(=O)c1ccc2c(=O)n(C3CCCC3)c(=S)[nH]c2c1 | 100 | 102 | 15 | -8
Cc1cc2nc(N3CCC(C)CC3)c3ccccc3n2n1 | 100 | 102 | -15 | 45
Cc1ccc(S(=O)(=O)NCC(c2ccccc2)N(C)C)cc1 (stereo unspecified) | 102 | 104 | 11 | -4
NC(=O)c1ccc(NC(=O)Cn2ccc(C(F)(F)F)n2)cc1 | 108 | 102 | -2 | -3
N=c1c2c(n(Cc3ccc(F)cc3)c3c1CCC3)CCC2 | 100 | 103 | -5 | -6
CCN(CC)C(=O)Cn1cc(S(=O)(=O)CC(=O)Nc2ccccc2C(F)(F)F)c2ccccc21 | 102 | 104 | -13 | -1
O=C(NC1CCCC1)c1cc(=O)[nH]c2ccccc12 | 104 | 99 | -38 | -6
O=C(O)CSc1c2c(nc3cc(C(=O)NCC4COc5ccccc5O4)ccc13)CCC2 (stereo unspecified) | 99 | 103 | 5 | 5
Cc1cccc(Oc2ccc(NC(=O)CCCC(=O)O)cc2)c1 | 102 | 107 | -3 | .
CCCN(CCC)C(=O)c1cc(Cl)ccc1OC | 99 | 101 | -29 | -9
CCCn1c(SCC(=O)NCC(F)(F)F)n[nH]c1=O | 105 | 99 | -8 | -12
O=C1CCC2(C(=O)OCc3c(Cl)cccc3Cl)N1c1ccccc1C(=O)N2C1CC1 (stereo unspecified) | 108 | 109 | -19 | -8
O=C(Oc1cccc(Br)c1)c1cccnc1Cl | 102 | 105 | . | -2

Sorted by molecular weight (ascending): some entries from above.
SMILES | PV pol inh | PV pol inh intensity | MenB inh | Mtb MbtI inh
Cc1cc2nc(N3CCC(C)CC3)c3ccccc3n2n1 | 100 | 102 | -15 | 45
CCCn1c(SCC(=O)NCC(F)(F)F)n[nH]c1=O | 105 | 99 | -8 | -12
Cc1ccc(S(=O)(=O)NCC(c2ccccc2)N(C)C)cc1 (stereo unspecified) | 102 | 104 | 11 | -4

(list continues)
SMILES | PV pol inh | PV pol inh intensity | MenB inh | Mtb MbtI inh
O=C(O)CC(c1ccccc1)c1cc(Cl)ccc1O (stereo unspecified) | 99 | 101 | 2 | -10
CC1(C)CC(=S)C=C(N2CCCCC2)C1 | 101 | 105 | -26 | 10
CC1(C)Cc2c(sc3ncn4nc(COc5ccc(Cl)cc5)nc4c23)C(C)(C)N1 | 101 | 105 | 10 | -1
CC(C)CNC(=O)c1cc(-c2ccccc2F)no1 | 102 | 103 | 4 | -27
COCC(=O)N(c1ccc(OC)cc1)C1C=CS(=O)(=O)C1 (stereo unspecified) | 105 | 107 | -1 | -15
Cc1ccc(-c2csc(NC(=O)COC(=O)c3cccs3)n2)cc1 | 97 | 102 | 2 | 3
Cc1ccsc1C(=O)NC(C)C(c1cccs1)N1CCCC1 (stereo unspecified) | 103 | 105 | . | -4
O=S(=O)(c1ccccc1)N1CCc2ccccc21 | 109 | 139 | -3 | -7
COc1cc(CN(CCN(C)C)Cc2ccccc2)cc(OC)c1 | 98 | 103 | -2 | -6
O=C(Nc1nnc(SCc2ccccn2)s1)C1CC(=O)N(c2ccccc2)C1 (stereo unspecified) | 98 | 99 | 8 | 12
CC(NC(=O)c1ccc(=O)[nH]c1)C12CC3CC(CC(C3)C1)C2 (stereo unspecified) | 102 | 104 | . | -5
CCNS(=O)(=O)c1cccs1 | 102 | 102 | -5 | -15
CCOC(=O)c1cc(-c2ccc(F)cc2)n(CCC(=O)Nc2nc3ccc(C)cc3s2)c1C | 98 | 98 | -26 | -13
CC(C)C(=O)NCCSc1c(-c2ccccc2)[nH]c2ccccc12 | 99 | 102 | -15 | 108
CCN(CC)CCN1C(=O)Cn2c(C)c(C)c3cccc1c32 | 99 | 92 | -11 | .
CCOC(=O)N1CCN(C(=O)c2ccc3c(c2)N(C)C(=O)/C(=C/c2ccc(OC)cc2)S3)CC1 | 100 | 101 | -2 | 5
CSc1cccc(NC(=O)CSc2nc3ccccc3o2)c1 | 103 | 105 | -12 | -2
O=C(Nc1ccc(Cl)cc1)O/N=C1\CCCCC1Cn1ccnc1 (stereo unspecified) | 104 | 100 | -9 | -2
OC(c1cc(C(F)(F)F)nc2c(C(F)(F)F)cccc12)C1CCCCN1 (stereo unspecified) | 101&101 | 103&102 | 1&5 | -1&-11
Cc1ccc(S(=O)(=O)CCC(=O)Nc2nccs2)cc1 | 101 | 103 | -18 | 22
CCC(C)NS(=O)(=O)c1ccc(OC)c(OC)c1 (stereo unspecified) | 99 | 100 | -14 | 1
NC(=O)c1ncoc1-c1ccccc1Cl | 101 | 102 | 17 | 10
COc1cccc(OC)c1C(=O)N1CCN(Cc2cccc3ccccc23)CC1 | 101 | 102 | -9 | -8
CC(=O)n1c2ccccc2c2cc(Br)ccc21 | 103 | 108 | -31 | 0
CC(=O)OC1=C(Sc2ccc(Cl)cc2)C(=O)CCC1 | 103 | 107 | . | 60*
c1ccc(OCCSc2nc3ccccc3[nH]2)cc1 | 101 | 102 | -1 | -1
OC(CNCc1ccc(Cl)cc1)COc1ccc(F)cc1Cl (stereo unspecified) | 104 | 98 | . | 0
O=C(O)CCc1ccc(-c2cccs2)[nH]1 | 104 | 106 | -14 | 78
CC(C)COC(=O)N1c2ccccc2C=CC1OCC(C)C (stereo unspecified) | 101 | 95 | -17 | -13
O=C(CSc1nnc(-c2cccnc2)o1)NCCc1ccccc1 | 104 | 94 | -23 | 20

Some of the entries so far, as comma-separated lines.
structure,PV pol inh,PV pol inh intensity,MenB inh,Mtb MbtI inh
CC(NC=O)c1nc2ccccc2n1Cc1ccccc1 (stereo unspecified),101,103,-8,-8
COc1ccc(/C=N/c2c(-c3ccco3)nc3ccccn23)cc1OC,102,103,-13,.
N#Cc1ccc(OCC(=O)Nc2ccc(-c3cn4ccsc4n3)cc2)cc1,102,98,-25,-16
Cc1ccc(O)c(C(=O)c2cnc3c(c2)CN(CCC(C)C)C(=O)N3)c1,107,105,-13,-26
Cc1cc(C)nc(NS(=O)(=O)c2ccc(-n3cccc3)cc2)n1,106,108,-4,.
Cc1ccccc1Nc1c(N)c(=O)oc2ccccc12,102,101,12,-3
CCC(=O)Nc1nc2nc(COC)cc(=O)n2[nH]1,103,106,-16,.
CCOc1ncccc1C(=O)Nc1cc(C(C)(C)C)ccc1OC,107,110,-2,130
CN1CCN(C(CC(=O)Nc2cccc3ccccc23)C(=O)O)CC1 (stereo unspecified),102,103,-5,-7
CC(C)N(C(=O)CSc1nncn1-c1ccccc1)c1ccccc1,103,109,-22,-12
CCOC(=O)c1ccc(CSc2n[nH]c(C)n2)o1,101,96,-18,8
O=C(Nc1ccccc1N1CCCC1)c1ccc(CSc2ncn[nH]2)cc1,108,115,-6,4
O=C(Nc1ncnc2sc3c(c12)CCCC3)c1ccc(F)cc1,103,99,.,-8
COc1ccc(OCCN2C(=O)c3ccccc3S2(=O)=O)cc1,105,106,-14,-13
Cc1cc(C(=O)NN2CCOCC2)cs1,103,104,-19,-12

Later entries:
SMILES | PV pol inh | PV pol inh intensity | MenB inh | Mtb MbtI inh
Cc1ccc(C(C)C)c(OC(=O)N(C)C)c1CN(C)C | 104 | 103 | 11 | -4
COC(=O)C(C)Sc1nc2c([nH]c3ccccc32)c(=O)n1C (stereo unspecified) | 101 | 106 | -4 | 18
O=C(Oc1ccc(C2SCCS2)cc1)c1ccccc1Cl | 104 | 109 | -2 | .
Cn1c(C(O)c2ccccc2)nc(Cl)c1Cl (stereo unspecified) | 100 | 103 | -7 | -10
Cn1c(CSc2cc(C(F)(F)F)nc3ccccc23)n[nH]c1=S | 100 | 104 | 4 | 65*
CCOC(=O)c1ccc2nc(C)c(CC)c(Cl)c2c1 | 104 | 103 | -54 | -6
CC(C)C(NC(=O)c1ccc(F)cc1)C(=O)N1CCC1 (stereo unspecified) | 107 | 104 | -13 | -1
Cc1nn2c(=O)c3ccc(C(=O)O)cc3nc2s1 | 100 | 96 | -24 | -1
CCn1c(N)c(N(C)CCOc2ccccc2)c(=O)[nH]c1=O | 101 | 96 | 4 | 5
O=C(Nc1ccc(F)cc1)Nc1ccc(N2CCOCC2)c2nonc12 | 99 | 105 | -19 | -14
CCCOc1ccc(/C=C(\C#N)C(=O)NC(N)=O)cc1OCC | 110 | 105 | 7 | 12
CCCCn1c(N)c(N(CC)C(=O)c2ccccc2)c(=O)[nH]c1=O | 99 | 101 | -14 | -5
CN1c2ccccc2N(C)C1c1cccs1 | 100 | 102 | 3 | -149
O=C(CCC1CCCCC1)Nc1ccc2c(c1)OCCO2 | 100 | 96 | . | -10
COc1ccc(NC(=O)c2cc(CN3C(=O)c4ccccc4C3=O)ccc2OC)cn1 | 106 | 120 | -4 | -9
CNC(=S)N(Cc1ccccc1)Cc1cccnc1 | 100 | 101 | 12 | -1
CC(C(=O)Nc1ccccc1)N(C)CCOc1ccccc1 (stereo unspecified) | . | . | -23 | -9
Cc1nc2nc(CSc3ccc(Cl)cc3)cc(=O)n2[nH]1 | 116 | 122 | -12 | 0
O=C(Nc1cccnc1)c1cc(-c2ccco2)on1 | 100 | 107 | 7 | 2
C=CCN(C(=O)Nc1ccccc1)C1CC(=O)N(c2ccc(OC)cc2)C1=O (stereo unspecified) | 100 | 101 | -9 | -1
CN1C(N)=NC(=O)/C1=C/c1cccnc1 | 101 | 97 | -20 | 12
CN1CCN(C(=O)CSc2c(-c3ccccc3)c3cc(Cl)ccc3[nH]c2=O)CC1 | 103 | 107 | -43 | 19
COc1ccc(CCNC(=O)CN2N=C(c3ccc(C)cc3)CCC2=O)cc1OC | 102 | 101 | -6 | 1
CCOC(=O)C1=NN(c2ccccc2OC)C2C(=O)N(c3ccc(Br)cc3)C(=O)C12 (stereo unspecified) | 99 | 103 | 5 | 6
N=C1SCC(=O)N1Cc1ccccc1 | 102 | 101 | -38 | 17
CCCCn1c(CCNC(=O)C(C)C)nc2ccccc21 | 104 | 103 | -2 | 1
CC(CC(=O)NC1CCCCCC1)CC1=NS(=O)(=O)c2ccccc2N1 (stereo unspecified) | 104 | 104 | 14 | 12
COC(=O)CSc1nnc(CNc2ccc(Cl)cc2)n1-c1ccc(OC)cc1 | 100 | 102 | 9 | 1
Nc1nnc(SCC(=O)OCc2ccccc2)s1 | 101 | 105 | 0 | -2
Cc1sc2ncnc(N(C)Cc3ccco3)c2c1C | . | . | -23 | 23
COC(=O)c1ccc(NC(=O)Cn2nc(SC)n(N)c2=S)cc1 | 110 | 102 | -11 | .
CCN(CC)C(=O)CCn1nc(-c2ccc(C)cc2)c2ccccc2c1=O | 102 | 106 | 0 | -85
CN1C(=O)CC(NCc2ccc(S(N)(=O)=O)cc2)C1=O (stereo unspecified) | 101 | 103 | 2 | 1
NS(=O)(=O)c1ccc(CCNC(=O)CCCn2ncn3c(cc4occc43)c2=O)cc1 | 101 | 104 | -8 | 2
COc1cc2c(cc1OC)C(c1ccccc1)N(C(=O)C(C)(C)C)CC2 (stereo unspecified) | 104 | 110 | -8 | -30
O=C(c1cc(-c2ccc(F)cc2)n[nH]1)N1CCN(c2cccc(Cl)c2)CC1 | 105 | 100 | -6 | -1
Cc1cc2[nH]c(=O)[nH]c2cc1S(=O)(=O)N1CCOCC1 | 101 | 103 | 8 | 3
CC(=O)OCC(=O)Nc1cccc(C)c1 | 110 | 115 | -6 | .
CNC(=S)Nc1ccc(C(=O)OC)cc1 | 100 | 100 | 2 | 23
C=CCSc1nnc(Cc2cc(=O)[nH]c(=O)[nH]2)n1-c1ccc(OC)cc1 | 105 | 99 | 1 | 7
Cc1ccc(C(=O)NC(c2ccccc2)c2ccccc2)o1 | 102 | 100 | -6 | -8
C=CCn1cc(C=C2C(=O)OC(c3ccccc3)OC2=O)c2ccccc21 (stereo unspecified) | 101 | 106 | -59 | 28
